# Source: PubChem
# Biofilm kill mix – mixtures killing C. albicans biofilm. C. albicans biofilm persisters + clotrimazole, fluorescence viability; primary screen in compound mixtures of four per well. AID 1242. hit rate 0.02% among 120,000. inhibition, % at 7.6 µM;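 active = inhibition above 30.3% in the primary screen of four-compound pools, then above 30% when the compound was retested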;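 note: compounds exposed to preformed 24 h biofilms for 48 h; the number belongs to the whole pool; some results filed as inactive read as strong as hits; inactives centre near 12; 0% = biofilm with clotrimazole alone and 100% = kill control; retested singly at about 60 µM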
#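 Assay system: C. albicans biofilms / Medium: RPMI/MOPS medium, pH 7.0 / Schedule: biofilm formation 24 h, compound exposure 48 h, 37 °C / Measured by: Alamar Blue fluorescence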
# The depositor's hits bear a star. Not all compounds are listed; the hit share may differ from the screen's.
SMILES | Biofilm kill mix
COc1ccc(CC(=O)NCC(=O)N/N=C/c2ccco2)cc1 | -2
COc1ccnc(Oc2cccc(C(F)(F)F)c2)c1C(=O)N/C=N/OCc1ccccc1F | 10
Cn1c(=O)[nH]c(=O)c2c1nc(N1CCCCCC1)n2CC(N)=O | -6
O=C(c1cccc(OCc2ccccc2)c1)N1CCOCC1 | -1
Cn1c(=O)c2c(nc(CO)n2C)n(C)c1=O | 6
COc1cccc(/C(=N/O)C2CC2c2ccc(Cl)cc2)c1 (stereo not drawn) | 17
NC(=S)NN=C(Cc1ccccc1)Cc1ccccc1 | 0
CC(C)Nc1nnc(SCC(=O)Nc2ccc3c(c2)C(=O)c2ccccc2C3=O)s1 | 10
O=C(COC(=O)/C=C/c1cccs1)Nc1nc(-c2ccccc2)cs1 | 9
O=C(CCCN1C(=O)c2cccc3cccc(c23)C1=O)N1CCN(c2ncccn2)CC1 | 14
CC(/C=N/Nc1nc2ccccc2[nH]1)=C\c1ccccc1 | 14
COc1ccccc1C(=O)C1CCCN(C(=O)C2CCCC2)C1 (stereo not drawn) | 9
O=C(CNC(=O)c1cccc(F)c1)N/N=C/c1cccc([N+](=O)[O-])c1 | 11
Oc1cccc2ccc(/C=C/c3c(F)cccc3Cl)nc12 | 4
CCCN(CCC)C(=S)Nc1cc(C(=O)OC)ccc1C(=O)OC | 4
COC(=O)/C(=N/Nc1ccccc1C)N1CCCc2ccccc21 | -2
CC(=O)Nc1ccc(S(=O)(=O)NNC(=O)C(=O)NNc2ccccn2)cc1 | 14
[N-]=C=C1C(=O)NC(=O)C([n+]2ccc(-c3ccncc3)cc2)C1c1ccccc1C(F)(F)F (stereo not drawn) | 14
S=C(NC1CCCCC1)N1CCn2cccc2C1c1ccncc1 (stereo not drawn) | 13
O=C(CCN1C(=O)/C(=C\c2cccs2)SC1=S)Nc1ccccn1 | 20
Cc1ccc(S(=O)(=O)/N=C2/C=C(Sc3ncn[nH]3)C(=O)c3ccccc32)c(C)c1 | 19
CC(=O)Nc1ccc(N2C(=O)CSC2c2ccccc2[N+](=O)[O-])cc1 (stereo not drawn) | -11
COC(=O)c1cccc(C23CC4(C2)[C@H](CN(Cc2ccc(-c5ccccc5)cc2)[C@@H]4c2ccccc2)C3c2ccc(C(F)(F)F)cc2)c1 (stereo partly drawn) | 18
COc1cccc(C(=O)NN/C(C)=C/C(=O)C(F)(F)C(F)(F)C(F)(F)F)c1 | 13
CCN1C(=C(C#N)C#N)C=Cc2cc(C)ccc21 | 19
O=C(COc1ccccc1)NCCSCc1ccc(Cl)cc1 | 12
Cc1cc(S(=O)(=O)NC2CCN(Cc3ccccc3)CC2)c(C)cc1Cl | 12
C[C@@H]1NC(=O)[C@H](CCCN=C(N)N)NC(=O)c2cc([N+](=O)[O-])cc(I)c2NCCC[C@@H](C(N)=O)NC1=O | 12
COC(=O)CCCCC1SCC(NC(=O)c2ccccc2)C1OC(C)=O (stereo not drawn) | 9
CN1C(=O)/C(=C/c2ccccc2OCc2ccc(C(=O)O)cc2)NC1=S | 10
COC(=O)CN(c1ccc(OC)cc1OC)S(=O)(=O)c1ccccc1[N+](=O)[O-] | 18
CCCOc1ccc(/C=C/c2[nH]c(=O)[nH]c(=O)c2[N+](=O)[O-])cc1OCC | 14
CC(C)c1ccc(/C=N/NC(=O)CC(=O)NCc2ccccc2)cc1 | 24
COc1ccc(Cl)cc1C(=O)Nc1ccc(CN2CCCCC2)cc1 | 3
O=C(OCC(=O)N1CCOCC1)c1ccccc1Cc1ccccc1 | 24
O=C(CNS(=O)(=O)c1ccccc1)N/N=C/c1ccc(O)cc1 | 11
Cc1cccc(C)c1NC(=S)NC(=O)c1ccc(Br)o1 | 12
Cc1ccc2cc([N+](=O)[O-])ccc2n1 | 17
O=C(/C=C/c1ccc([N+](=O)[O-])cc1)N1CCN(S(=O)(=O)c2cccs2)CC1 | 11
COc1ccc(/C=N/NC(=S)Nc2ccccc2)cc1COc1ccc(F)cc1F | 11
O=C1N=c2ccccc2=C1c1sc(=S)n(Cc2ccccc2Cl)c1O | 17
CC(C)=CCN1CCN(Cc2cnc(C)s2)CC1CCO (stereo not drawn) | 7
COc1cc(C2=NOC(C(=O)Nc3c(C)n(C)n(-c4ccccc4)c3=O)C2)cc(OC)c1OC (stereo not drawn) | 25
O=C1N=C(N2CCc3ccccc3C2)S/C1=C\c1cccc(O)c1 | 7
COc1ccc(CN(C(=O)CSc2nnc(-c3ccc(OC)c(OC)c3)o2)c2ccc(F)cc2)cc1 | 24
COc1ccc(-c2csc3ncnc(Oc4ccc5c(C)cc(=O)oc5c4)c23)cc1 | 16
CCN(CC)CCNC(=O)c1cn(CC)c2cc(N3CCN(C(=O)c4ccco4)CC3)c(F)cc2c1=O | 26
O=C(/C=C/c1cccc([N+](=O)[O-])c1)NCCSCc1c(Cl)cccc1Cl | 12
O=S(=O)(Nc1ccc(-c2nc3cccnc3s2)cc1)c1cc(F)ccc1F | 19
COc1ccccc1NC(=O)CCC(=O)OCc1ccc(Br)cc1 | 6
O=C(COC(=O)c1cncc(Br)c1)NC1CCCC1 | 15
O=C1c2cccnc2C(Nc2cccc(F)c2)N1Cc1ccco1 (stereo not drawn) | 7
Cc1ccc(NC(=O)COC(=O)C2CC2)c(Br)c1 | 21
Cc1nc(N2CCC(C)CC2)c2c(C)c(C(=O)Nc3cccc(C(F)(F)F)c3)sc2n1 | 1
Cc1ccc(S(=O)(=O)N2CCOCC2)cc1C(=O)NC(=S)N1CC(C)CC(C)C1 (stereo not drawn) | 1
O=C(COC(=O)COc1ccc(Cl)cc1Br)NCc1cccs1 | -9
CC(C)CC(=O)NC(=S)Nc1ccccc1C(F)(F)F | -6
Cc1nnc(SCC(=O)NNC(=O)CC#N)[nH]c1=O | -3
COC(=O)c1ccc(/C=C(\C#N)c2ccccn2)cc1 | 2
CCOc1ccccc1NC(=O)C(C)CC (stereo not drawn) | 9

# The listing continues.
SMILES | Biofilm kill mix
COc1ccc(/C=N/NC(=O)c2ccc(CN3C(=O)c4cccc5cccc3c45)cc2)cc1O | 13
COc1ccc(C2C(C(=O)N3CCN(C)CC3)c3cc(OC)c(OC)cc3C(=O)N2C)cc1 (stereo not drawn) | 20
O=C(CSc1ccc(-c2cccnc2)nn1)N1CCCc2ccccc21 | 15
Cc1nn(CC2CC2)c(=O)n1-c1ccc(Oc2ccccc2)cc1 | -12
COc1cccc(C(=O)COc2ccc3ccc(=O)oc3c2)c1 | 12
CC1=C/C(=N\NC(=O)c2cccs2)CC(C)(C)C1 | 15
CCCOc1ccc(C(=O)NNC(=S)NC(=O)c2ccco2)cc1 | 22
Cc1cc(C(=O)COC(=O)c2ccc3c(c2)NC(=O)CS3)c(C)n1CC1CCCO1 (stereo not drawn) | 19
COc1ccc(CCNC(=O)CSc2nc3[nH]ncc3c(=O)n2-c2ccc(Cl)cc2Cl)cc1OC | 6
COC(=O)c1ccc(NN=Nc2ccc(C)cc2)cc1 | 19
CC(C)(C)C1CCC(C(=O)OCC(=O)N2CCOCC2)CC1 (stereo not drawn) | 15
Cc1ccc(OCC(=O)NC(C)c2ccccc2)c([N+](=O)[O-])n1 (stereo not drawn) | 8
O=C(NCC1CCCO1)C1CCN(C2CCN(Cc3cccs3)CC2)CC1 (stereo not drawn) | 24
COc1cccc(N2C(=O)CC(N3CCN(CCN=CC4=C(O)CC(C)(C)CC4=O)CC3)C2=O)c1 (stereo not drawn) | 7
O=S(=O)(NCCc1ccccc1)c1ccc(Cl)nc1 | 16
C(=N\Nc1nncc2ccccc12)/c1ccccc1 | 26
O=C(COC(=O)CCCN1C(=O)c2cccc3cccc(c23)C1=O)Nc1ccc(Cl)cc1 | 18
COC(=O)c1ccccc1NC(=O)N1CCN(c2ccc(F)cc2)CC1 | 17
CCN1/C(=C/c2cc[n+](CCCS(=O)(=O)[O-])c3ccccc23)Sc2ccccc21 | 9
COC(=O)c1ccc(CNC(=O)c2c3c(nc4ccccc24)CCN(Cc2ccccc2)C3)cc1 | 15
Cc1nn(C)cc1-c1csc(N)n1 | 13
COc1ccc(C2=NN(C(=O)CSC3=NN4CCCC(=O)N=C4S3)C(c3cccc(OC)c3OC)C2)cc1 (stereo not drawn) | 12
Cc1ccc(N(C(=O)NC2CCCCC2)C2=NCCCCC2)cc1 | 22
CCn1cc(CNC(=O)c2cc(COc3ccc(F)cc3F)on2)cn1 | 11
CCOC(=O)C1(Cc2cccc(F)c2)CCN(C(=O)C2CCCO2)CC1 (stereo not drawn) | 5
CCc1nc2sc3c(=O)n(N)cnc3c2c2c1COC(C)(C)C2 | 5
CCO[C@H]1OC(C(=O)N2CCN(Cc3ccc4c(c3)OCO4)CC2)=C[C@@H](c2ccc(C(F)(F)F)cc2)[C@@H]1CCCO | 17
O=C(c1cc(Sc2cccc(Cl)c2)nc2ccccc12)N1CCN(c2ccccn2)CC1 | 16
COc1ccc(CCN=C(N)NS(=O)(=O)c2ccc3ccccc3c2)cc1 | 12
CCN(CC)C(=O)N1CCN(Cc2ccc3c(c2)OCO3)CC1 | 2
COC(=O)N/N=C/c1cc(Cl)cc(Cl)c1OCc1ccccc1F | -2
Cc1ccc(CN2CCN(Cc3cn[nH]c3C3CCCCC3)CC2CCO)cc1 (stereo not drawn) | 4
C[C@]12CC[C@@H]3c4ccc(O)cc4CC[C@H]3[C@@H]1CC[C@@H]2O | 19
CCCn1c(SCC(=O)NC(=O)NC(C)(C)C)n[nH]c1=O | 5
CC(C)c1ccc(/C=C/C(=O)Nc2ccc(CN3CCOCC3)cc2)cc1 | 20
Cc1cccc(-c2cc3nc(C)cc(N4CC(C)CC(C)C4)n3n2)c1 (stereo not drawn) | 14
Cc1[nH]nc(NNC(=O)c2ccccc2)c1[N+](=O)[O-] | 31
CCNC(=O)C1CCCc2c1[nH]c1ccc(Cl)cc21 (stereo not drawn) | 8
Cc1ccc(C)c(S(=O)(=O)N2CCN(C(C(=O)Nc3ccc(F)cc3)c3ccccc3)CC2)c1 (stereo not drawn) | 9
Cc1ccc2nc(Cl)c3nnnn3c2c1 | 13
COc1ccc(NC2=C(C(C)=O)C(c3ccc(OC)c(OC)c3)C(C(C)=O)C(C)(O)C2)cc1 (stereo not drawn) | 9
Cc1nc2cnccc2n1C | 11
COc1ccc(Nc2nc3ccccc3nc2NS(=O)(=O)c2ccc(NC(C)=O)cc2)cc1 | 27
CN(C)c1ccc(N=Nc2nc3ccccc3n2C)cc1 | 8
COc1ccc(C(=O)NCC(=O)N=Nc2c(O)n(Cc3ccccc3)c3ccccc23)cc1OC | 16
Cc1ccc(O)c(N=NC2=C(O)CC(C)(C)CC2=O)c1 | 10
Cc1sc(NC(=O)C2C3CCC(O3)C2C(=O)O)nc1-c1ccc(CC(C)C)cc1 (stereo not drawn) | 9
Cc1ccc(N/C(C(Cl)=C(Cl)Cl)=C(/Cl)[N+](=O)[O-])c(C)c1 | 9
CC(C)C(=O)Nc1cccc(-c2cn3ccccc3n2)c1 | 18
CC(Oc1ccc(Cl)cc1)c1ccc(C#N)c(=O)[nH]1 (stereo not drawn) | 17
N#CC(c1ccccc1)c1cccc(Cl)n1 (stereo not drawn) | 0
CCNc1c([N+](=O)[O-])c(=O)n(CC)c2ccccc12 | 14
CC1(C)Cn2c(nc(=O)c3c2NCN(CCc2ccccc2)C3)S1 | 14
Cn1c(NC(=O)CC2CCCCC2)cc(=O)n(C)c1=O | 15
COc1cc(C(=S)N2CCN(c3ccccc3Cl)CC2)cc(O)c1O | 5
CCOc1ccc(S(=O)(=O)N/N=C(\C)c2ccc(Cl)c(Cl)c2Cl)cc1 | 8
CC(C)N1CCN(Cc2cccn2-c2cccnc2)CC1CCO (stereo not drawn) | 2
CCOCc1nnc(NC(=O)c2cc(OC)c(OC)cc2[N+](=O)[O-])s1 | 12
COc1ccc(C/C(C)=N/NS(=O)(=O)c2ccc(Br)cc2)cc1 | 16
COc1ccc(-c2cnnc(N/N=C/c3ccc(C)o3)n2)cc1 | 1

# 6 structures from above, sorted by SMILES length, falling:
SMILES | Biofilm kill mix
COc1ccc(NC2=C(C(C)=O)C(c3ccc(OC)c(OC)c3)C(C(C)=O)C(C)(O)C2)cc1 (stereo not drawn) | 9
Cc1ccc(C)c(S(=O)(=O)N2CCN(C(C(=O)Nc3ccc(F)cc3)c3ccccc3)CC2)c1 (stereo not drawn) | 9
C[C@]12CC[C@@H]3c4ccc(O)cc4CC[C@H]3[C@@H]1CC[C@@H]2O | 19
Cc1ccc(N/C(C(Cl)=C(Cl)Cl)=C(/Cl)[N+](=O)[O-])c(C)c1 | 9
CC(C)c1ccc(/C=C/C(=O)Nc2ccc(CN3CCOCC3)cc2)cc1 | 20
COc1ccc(-c2cnnc(N/N=C/c3ccc(C)o3)n2)cc1 | 1

# Following part:
SMILES | Biofilm kill mix
COC(=O)CCSCC(=O)Nc1ccc(C)c(S(=O)(=O)N2CCCCC2)c1 | 21
Cc1cccc(C)c1NC(=O)CSC(=S)N1CCCC1 | 16
CC1(C)OC(=CC=Nc2ccc(Cl)cc2)OC1(C)C | 14
COc1ccc(Oc2c(O)c3ccccc3n(C)c2=O)cc1 | 11

# Among those listed so far, 8 have an aryl thioether with sulfur outside any ring:
SMILES | Biofilm kill mix
CC(C)Nc1nnc(SCC(=O)Nc2ccc3c(c2)C(=O)c2ccccc2C3=O)s1 | 10
Cc1ccc(S(=O)(=O)/N=C2/C=C(Sc3ncn[nH]3)C(=O)c3ccccc32)c(C)c1 | 19
COc1ccc(CN(C(=O)CSc2nnc(-c3ccc(OC)c(OC)c3)o2)c2ccc(F)cc2)cc1 | 24
Cc1nnc(SCC(=O)NNC(=O)CC#N)[nH]c1=O | -3
O=C(CSc1ccc(-c2cccnc2)nn1)N1CCCc2ccccc21 | 15
COc1ccc(CCNC(=O)CSc2nc3[nH]ncc3c(=O)n2-c2ccc(Cl)cc2Cl)cc1OC | 6
O=C(c1cc(Sc2cccc(Cl)c2)nc2ccccc12)N1CCN(c2ccccn2)CC1 | 16
CCCn1c(SCC(=O)NC(=O)NC(C)(C)C)n[nH]c1=O | 5
